Compound activity: PubChem BioAssay, Johns Hopkins Ion Channel Center
KCNQ2 inh – KCNQ2 potassium channel inhibitors, primary screen, cell-based, CHO-K1, FluxOR thallium flux, B-score (AID 2156). O88943. 20 min; stronger effect = lower value; only compounds with negative scores are shown here; some inactives read as strong as hits. B-score at 10 µM. 310,000 compounds, 1.1% hits;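 active = fluorescence ratio B-score at most minus 3 library SDs, with starting brightness B-score within 2 library SDs, cut at about -5.5 in these data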
Target sequence (O88943 whole entry, looked up): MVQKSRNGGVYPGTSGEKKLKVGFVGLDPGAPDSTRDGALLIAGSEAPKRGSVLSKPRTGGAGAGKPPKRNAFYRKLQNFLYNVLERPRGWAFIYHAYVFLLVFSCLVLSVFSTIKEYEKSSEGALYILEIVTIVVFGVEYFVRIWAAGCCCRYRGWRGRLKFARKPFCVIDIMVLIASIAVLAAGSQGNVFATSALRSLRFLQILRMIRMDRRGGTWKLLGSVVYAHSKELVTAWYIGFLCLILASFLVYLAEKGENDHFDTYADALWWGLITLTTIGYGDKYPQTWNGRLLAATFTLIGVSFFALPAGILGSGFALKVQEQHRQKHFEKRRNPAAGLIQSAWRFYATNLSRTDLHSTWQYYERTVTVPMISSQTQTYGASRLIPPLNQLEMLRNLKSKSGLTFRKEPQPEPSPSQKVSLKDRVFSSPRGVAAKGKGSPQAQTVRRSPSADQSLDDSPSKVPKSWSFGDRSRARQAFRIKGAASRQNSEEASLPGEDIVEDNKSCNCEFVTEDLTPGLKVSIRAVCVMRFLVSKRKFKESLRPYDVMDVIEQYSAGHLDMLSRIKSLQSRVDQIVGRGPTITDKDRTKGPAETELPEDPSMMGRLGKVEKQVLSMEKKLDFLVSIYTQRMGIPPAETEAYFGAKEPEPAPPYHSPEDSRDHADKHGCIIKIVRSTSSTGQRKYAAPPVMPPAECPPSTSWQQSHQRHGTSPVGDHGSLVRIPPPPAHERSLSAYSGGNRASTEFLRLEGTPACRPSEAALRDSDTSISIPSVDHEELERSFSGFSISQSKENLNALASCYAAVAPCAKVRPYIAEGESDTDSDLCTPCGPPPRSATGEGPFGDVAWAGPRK
KCNQ2 inh baseline – also measured in KCNQ2 inh; calls as there; B-score; measured here: initial fluorescence intensity artifact check;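 brightness before thallium and not channel activity; 0 = typical well and far values either way flag optical interference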
* = called active by the depositor; i = inactive. A portion of the library; the hit share may differ from the screen's.

Start of the data: the first 3 records, ahead of the listing:
mol | KCNQ2 inh baseline | KCNQ2 inh
Nc1nc(SCC(=O)Nc2ccc([N+](=O)[O-])cc2)[nH]c(=O)c1NC(=O)c1ccc(Br)o1 | -1.65 | i
COc1cccc(NC(=S)N(CCCN2CCC(C)CC2)Cc2cccs2)c1 | 1.21 | i
O=C(CS(=O)(=O)c1ccc(Cl)cc1)Nc1nnc(-c2cccs2)o1 | -0.44 | i

The listing, previewed entries included:
mol | KCNQ2 inh baseline | KCNQ2 inh
Nc1nc(SCC(=O)Nc2ccc([N+](=O)[O-])cc2)[nH]c(=O)c1NC(=O)c1ccc(Br)o1 | -1.65 | i
COc1cccc(NC(=S)N(CCCN2CCC(C)CC2)Cc2cccs2)c1 | 1.21 | i
O=C(CS(=O)(=O)c1ccc(Cl)cc1)Nc1nnc(-c2cccs2)o1 | -0.44 | i
Cc1csc(SCC(=O)NC(=O)NCCC(C)C)n1 | 0.02 | i
CN(C)S(=O)(=O)N(CC(=O)Nc1ccc2ccccc2c1)c1ccccc1 | 0.14 | i
CN(C)CCCN(C(=O)c1ccco1)c1nc2cc3c(cc2s1)OCO3 | 0.67 | i
CC1(C)C(=O)Nc2ccccc2N1C(=O)COC(=O)CCSc1ccccc1 | 0.96 | i
COc1ccc(OCC(=O)Nc2cc(-c3nn(C)c(=O)c4ccccc34)ccc2OC)cc1 | 1.09 | i
CCN1C/C(=C/c2ccc(N3CCOCC3)cc2)C(=O)/C(=C/c2ccc(N3CCOCC3)cc2)C1 | 2.78 | i
CC(C)(C)NC(=O)C(OC(=O)c1cccs1)c1ccccc1 (stereo not given) | -0.02 | i
COc1ccc(C(CNC(=O)c2oc3ccc(Cl)cc3c2C)N2CCCCC2)cc1 (stereo not given) | 0.33 | i
COc1nc(-c2ccccc2)ccc1-c1noc(C)n1 | -0.14 | i
CCc1ccccc1N(C)S(=O)(=O)c1ccc2[nH]cc(C(=O)O)c(=O)c2c1 | 1.49 | i
COc1ccc(CCn2c(SCC(=O)Nc3cc(C)on3)nc3ccccc3c2=O)cc1OC | 2.62 | i
COc1ccc(CN2CCN(CCC(C)C)C(CCO)C2)cc1Cn1cncn1 (stereo not given) | 1.1 | i
CCCCC(=O)Nc1cc2nn(-c3ccc(OC)cc3)nc2cc1C | 0.08 | i
CCCC(CCC)C(=O)OC1C[C@H]2CC[C@@H](C1)[N+]2(C)C (stereo not given in full) | 1.89 | i
COc1ccc(S(=O)(=O)NCc2ccncc2)cc1NC(=O)c1ccccc1C | 0.08 | i
Cc1cc(/C=N/NC(N)=S)c(C)n1-c1ccc(Cl)cc1 | 0.75 | i
CCOc1ccccc1-c1cc(-c2n[nH]c(=S)n2CC)c2ccccc2n1 | -2.11 | i
Cc1cccc(NC(=O)CCCCCN2C(=O)[C@@H]3Cc4ccccc4CN3C2=O)c1 | -1.04 | i
COc1cc(NC(=O)Cn2c([N+](=O)[O-])cnc2C)c(OC)cc1Cl | 0.01 | i
CCOc1ccccc1OCCCCN1CCCC1 | -0.04 | i
Cc1cc(NS(=O)(=O)c2ccc(NC(=O)/C=C/c3ccco3)cc2)nc(C)n1 | 0.54 | i
Cc1nc2ccc(NC(=O)NCCO)cc2s1 | -0.73 | i
COc1cc(NC(=O)c2cc(C)nc3ccccc23)cc(OC)c1OC | 2.08 | i
COc1cc(NC(=O)CN2C(=O)c3ccccc3Sc3ccc(C(=O)N4CCOCC4)cc32)cc(OC)c1OC | 0.75 | i
CCC(=O)Nc1nnc(SCCOC)s1 | 0.31 | i
CCOC(=O)c1c(/N=C/C2=C(O)CC(C)(C)CC2=O)sc(C(C)=O)c1C | 0.18 | i
Cc1ccc(C(C(=O)NC(C)(C)C)N(CCCN2CCOCC2)C(=O)c2ccc(-c3ccccc3)[nH]2)o1 (stereo not given) | 0.38 | i
COc1ccc(-n2c(SCC(=O)Nc3ccc(NC(C)=O)cc3)nc3ccccc3c2=O)cc1 | 0.18 | i
O=C(CCC(=O)OCC(=O)c1ccc(Cl)cc1)NC1CCCCC1 | 0.78 | i
CSC1CCCCC1(O)CSc1nc2ccccc2o1 (stereo not given) | -0.94 | i
CC(C)C(=O)N1CCc2cc(-c3csc(N)n3)ccc21 | 0.92 | i
Cc1ccccc1NC(=O)c1cccc(S(=O)(=O)Oc2ccc([N+](=O)[O-])cc2)c1 | 1.81 | i
CCN(CC)CCCn1c(=S)[nH]c2cc(OC)c(OC)cc2c1=O | 0.63 | i
Cc1ccc(S(=O)(=O)N(C)c2ccc3ccccc3c2)cc1 | 0.72 | i
O=C(N/N=C/c1ccccc1O)C1CCCC1 | -1.02 | i
Cc1cccc(C2NC(c3cccc(C)c3)C(C)C(=O)C2C)c1 (stereo not given) | 3.02 | i
CC(C)CC1Nc2ncnc(N3CCOCC3)c2N(Cc2ccc(Br)cc2)C1=O (stereo not given) | 0.34 | i
CC(C)CC(NC(N)=O)C(=O)OCC(=O)N(Cc1ccccc1)Cc1ccccc1 (stereo not given) | -0.85 | i
Cc1c(N2C(=O)CSC2c2ccc([N+](=O)[O-])cc2)c(=O)n(-c2ccccc2)n1C (stereo not given) | 0.76 | i
CCOc1cccc(-c2nnc(SCC(=O)Nc3cc(OC)cc(OC)c3)n2N)c1 | 0.67 | i
Cc1nn(Cc2ccc(F)cc2)c(C)c1NC(=O)c1cc2ncc(Br)cn2n1 | 0.55 | i
NC(=O)CC[C@@H]1NC(=O)[C@@H]2CCCN2C(=O)c2cc([N+](=O)[O-])cc(F)c2NCCC[C@@H](C(N)=O)NC1=O | -0.43 | i
Cc1cccc(OCC(=O)Nc2cc(C)on2)c1 | -2.33 | i
Cc1noc(C)c1CSCC(=O)Nc1cc(S(=O)(=O)N2CCOCC2)ccc1OC(C)C | -2.22 | i
O=C(NCC(=O)N1CCc2ccccc2C1)c1ccccc1Cl | 2.95 | i
CNC(=S)N1CCN(S(=O)(=O)c2ccc3ccccc3c2)CC1 | -0.68 | i
CCN1C(=O)CSc2ccc(C(=O)OC)cc21 | -0.07 | i
COc1cccc2c1C(=O)O/C2=C/c1ccc2c(c1)OCO2 | -0.06 | i
COc1ccccc1C(C[N+](=O)[O-])c1c[nH]c2ccccc12 (stereo not given) | 0.7 | i
O=C(CSc1ncn[nH]1)Nc1cccc(S(=O)(=O)N2CCCCCC2)c1 | -0.02 | i
O=C(O)CC(=O)Nc1ccc(Oc2ccc(C(F)(F)F)cn2)c(Cl)c1 | 1.54 | i
O=c1[nH]c(CN2CCN(c3ccccc3Cl)CC2)nc2ccsc12 | -1.03 | i
CC(C)Oc1ccc(CSc2ncn[nH]2)cc1 | 0.62 | i

Additional entries.
mol | KCNQ2 inh baseline | KCNQ2 inh
O=C(Nc1cccc(-c2cn3c(n2)SCC3)c1)c1ccc2ccccc2n1 | 0.89 | i
Cc1cccc(NC(=O)/C(C#N)=C/c2ccc(Sc3ccccc3)o2)c1C | 1.12 | i
COc1ccc(N2C(=O)C(Cl)=C(Oc3cccc(OC)c3)C2=O)cc1 | 0.25 | i
N#Cc1c(NC(=O)C2C3C=CC(C3)C2C(=O)O)sc2c1CCCCC2 (stereo not given) | -0.47 | i
COc1cccc(-n2c(SCc3ccccn3)nc3c(c2=O)SCC3)c1 | 1.05 | i
Cc1ccccc1-n1c(SC/C(O)=C(\C#N)c2nc3ccccc3[nH]2)nnc1-c1ccncc1 | 0.81 | i
Cc1ccc(NC(=O)c2cc(-c3ccco3)on2)cc1 | -0.79 | i
Cc1ccc2nc(SCC(=O)Nc3ccc(F)cc3)nc(=O)n2c1 | 1.21 | i
COc1ccc(-n2c(C)cc3cc(OC(C)=O)ccc32)cc1 | 1.67 | i
Cc1ccc(N2CC(C(=O)Nc3cc(C)on3)CC2=O)c(C)c1 (stereo not given) | 1.32 | i
COC(=O)[C@H](Cc1ccccc1)NC(=O)c1ccc2ccccc2n1 | -1.52 | i
O=C(Nc1ccccn1)c1ccc([N+](=O)[O-])cc1Cl | -2.8 | i
Cc1cc2c3c([nH]c2cc1S(=O)(=O)NCc1ccc(CN2CCCCCC2)o1)CCCC3=O | 0.02 | i
CC(=O)Nc1ccc(NC(=O)CSc2ccc(-c3ccco3)nn2)cc1 | -0.87 | i
Cc1ccc(CCNS(=O)(=O)c2cc(Br)cnc2N)cc1 | -1.11 | i
CCc1ccc(-n2c(SCC(=O)Nc3cc(C)[nH]n3)nc3[nH]ncc3c2=O)cc1 | -0.18 | i
COC(=O)c1ccc(S(=O)(=O)c2ccc(Cl)cc2)c(N)c1 | -0.96 | i
COCCNc1nnc(Cc2ccc(OC)c(OC)c2)c(=O)[nH]1 | 1.5 | i
Cc1csc(CNC(=O)c2ccc(OC3CCN(CCc4ccccc4)CC3)cc2)n1 | 0.23 | i
Cc1ccc(S(=O)(=O)C(C)C(=O)NCCS(=O)(=O)c2ccc(Cl)cc2)cc1 (stereo not given) | -2.59 | i
CCc1ccc(CCC(=O)Nc2nccs2)o1 | 1.69 | i
N#CC1=C(N)C2=CCCC[C@H]2[C@H](c2ccccc2)C1(C#N)C#N | 0.83 | i
COc1ccc(/C=N/OCC(=O)N(Cc2ccccc2)c2ccccc2C(=O)O)cc1 | -0.52 | i
O=C1C2C3C=CC(C4CC34)C2C(=O)N1c1cc(Cl)ccn1 (stereo not given) | 0.1 | i
Cc1nn(CCC#N)c(N)c1C1(O)C(=O)Nc2c(Cl)cc(Cl)cc21 (stereo not given) | -1.48 | i
N#Cc1c(N2CCSCC2)nsc1-c1ccccc1Cl | -0.9 | i
CCc1nnc(NC(=O)c2ccc(COc3ccccc3Cl)o2)s1 | 0.14 | i
COC(=O)c1sc(N)c(C(=O)OC)c1COC(=O)c1c(C)noc1C | -1.79 | i
CCOc1ccc(N(C(C)=O)C2C=CS(=O)(=O)C2)cc1 (stereo not given) | 1.78 | i
CN(C)C(CNC(=O)CCOc1ccccc1)c1ccco1 (stereo not given) | -0.91 | i
CCOc1ccccc1N(CC(=O)Nc1cc(OC)ccc1OC)S(=O)(=O)c1ccccc1 | 0.94 | i
COc1cccc(NC(=O)CCCn2c(=O)[nH]c3ccccc3c2=O)c1 | -1.31 | i
OCCC1CN(Cc2ccc(-c3ccco3)cc2)CCN1Cc1ccsc1 (stereo not given) | 0.66 | i
CSc1nc(N)nc(SCC(=O)Nc2cccc(F)c2)c1C#N | -0.8 | i
O=C(Nc1ccon1)c1csc2c1CCCC2 | -1.01 | i
O=C(Nc1ccncc1)c1ccc2c(c1)OCCO2 | 0.15 | i
COc1ccc(S(=O)(=O)NCC2CCCN(C(=O)CN3CCCCC3)C2)cc1 (stereo not given) | 0.03 | i
CCCOc1ccc(C(=O)Nc2ccc(S(=O)(=O)N3CCN(C)CC3)cc2)cc1 | -0.02 | i
O=C(CCN1C(=O)/C(=C/c2ccccc2Cl)SC1=S)N1CCOCC1 | 0.05 | i
CCCC1=C(C(=O)OCC)C(c2ccc(NC(C)=O)cc2)NC(=O)N1 (stereo not given) | 0.29 | i
CCOC(=O)CNC(=O)CNC(=O)c1ccc(OCC(C)C)cc1 | 0.22 | i
Cc1ccc(OC(C)C(=O)Nc2ccc(S(=O)(=O)Nc3cc(C)on3)cc2)cc1 (stereo not given) | 1.7 | i
CN(C)S(=O)(=O)c1ccc(Nc2ccc(-c3ccc4c(c3)OCCO4)nn2)cc1 | 0.92 | i
COC(=O)c1cn(-c2ccccc2)c(=O)c2ccccc12 | 0.47 | i
COc1cc2c(cc1OC)CN(C(=O)/C=C/c1ccccc1[N+](=O)[O-])CC2 | -2 | i
Cc1cccc(NC(=O)Cn2nnc(-c3ccc(CN4CCCC4)cc3)n2)c1C | -0.08 | i
CN1C(=O)C(C)(C)c2cc(S(=O)(=O)N3CCCC(C(=O)NCc4ccc(Cl)cc4)C3)ccc21 (stereo not given) | 0.19 | i
O=C(NCCc1nc2ccccc2[nH]1)c1ccc(F)cc1 | 0.04 | i
O=C(Cn1c(C(=O)NCC2CCCO2)cc2sccc21)c1ccccc1 (stereo not given) | 0.13 | i
CCC(C)NC(=S)N1CCN(C(c2ccccc2)c2ccccc2)CC1 (stereo not given) | -1.45 | i
O=C(CSc1ccc(-c2ccccc2)nn1)NC1CCCCC1 | -0.17 | i
O=C(CC1C(=O)N(c2ccccc2)C(=S)N1c1ccccc1)c1ccccc1 (stereo not given) | -0.25 | i
O=C(Nc1ccc(F)cc1)c1cn(-c2ccccc2)nc1-c1ccncc1 | 0.05 | i
CC(=O)N(c1ccc2oc(=O)sc2c1)S(=O)(=O)c1ccc(C)cc1 | 2.17 | i
O=C(COc1ccc(/C=C\[N+](=O)[O-])cc1)N1CCOCC1 | 0.8 | i
COc1ccc(N2CC(C(=O)OCC(=O)Nc3cc(C)on3)CC2=O)cc1 (stereo not given) | 0.32 | i

Continued:
mol | KCNQ2 inh baseline | KCNQ2 inh
O=C(c1ccccc1)c1nn(-c2ccc(Cl)cc2)cc1C(=O)c1cc2ccccc2oc1=O | 0.05 | i
CN(CC(=O)Nc1ccccc1C(F)(F)F)C(=O)c1cc(-c2cccs2)nn1-c1ccccc1 | -0.46 | i
Cn1c(=O)oc2cc(S(=O)(=O)NCCC(=O)NCCc3ccc(Cl)cc3)ccc21 | -0.32 | i
Cc1ccc(CN(Cc2ccco2)C(=S)Nc2ccccc2C)cc1 | -0.78 | i
COc1ccccc1OCCSc1nc2ccccc2c(=O)[nH]1 | -0.7 | i
Oc1ccc(-c2cnns2)c(O)c1 | 2.02 | i

Part of the list above, with the structure last.
KCNQ2 inh baseline | KCNQ2 inh | Structure
-0.78 | i | Cc1ccc(CN(Cc2ccco2)C(=S)Nc2ccccc2C)cc1
0.05 | i | O=C(c1ccccc1)c1nn(-c2ccc(Cl)cc2)cc1C(=O)c1cc2ccccc2oc1=O
-0.7 | i | COc1ccccc1OCCSc1nc2ccccc2c(=O)[nH]1
-0.32 | i | Cn1c(=O)oc2cc(S(=O)(=O)NCCC(=O)NCCc3ccc(Cl)cc3)ccc21
